# Ecoli growth – E. coli growth inhibition; Escherichia coli growth, OD600, 23 h; stronger effect = lower value; OD600 absorbance (no concentration beside the values); actives 0.21% (n = 330,000); AID 1053175;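 active = OD600 absorbance below the run mean of sample wells minus 3.6 SD, in any replicate, cut at about 0.56 in these data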;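 also: stock transfer was 300 nL into about 60 µL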
# UCH37 inh – human UCH37 deubiquitinating enzyme inhibition; Q9Y5K5; actives 0.33% (n = 330,000); purified proteasome/UCH37, Ub-AMC cleavage fluorescence; inhibition, % (test concentration not listed);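 active = mean of two replicates above 20%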;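 also: 0% = compound-free wells with enzyme and 100% = wells lacking proteasome; stock transfer was 100 nL into about 20 µL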
# Target sequence (Q9Y5K5 whole entry, looked up): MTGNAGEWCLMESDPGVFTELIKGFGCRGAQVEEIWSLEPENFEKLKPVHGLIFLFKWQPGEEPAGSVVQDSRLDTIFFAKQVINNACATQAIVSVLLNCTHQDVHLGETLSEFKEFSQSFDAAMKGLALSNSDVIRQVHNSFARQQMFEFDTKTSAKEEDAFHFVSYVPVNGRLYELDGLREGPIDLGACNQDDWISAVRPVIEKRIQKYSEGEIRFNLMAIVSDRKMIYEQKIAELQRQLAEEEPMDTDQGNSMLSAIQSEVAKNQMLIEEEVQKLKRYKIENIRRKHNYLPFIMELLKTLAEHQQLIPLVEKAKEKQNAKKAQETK
#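 Assay system: Proteasome-bound UCH37. Buffer or medium: pH 7.4 Tris-HCl (50 mM) with ovalbumin, ATP-MgCl2, DTT. Incubation: 30 min preincubation with enzyme, 25 min cleavage at room temperature. Measured by: fluorescence, ex 355 nm, em 460 nm. Read-out basis: percent inhibition. Control set: wells without proteasome as full block, compound-free enzyme plus substrate as uninhibited.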
# Beta2AR agonist – agonists of human beta-2 adrenergic receptor inducing internalization; Am2.2-beta2AR cells, FAP receptor internalization, flow cytometry; reference of the scale not given here; response, % (no concentration beside the values); AID 504454; P07550; actives 0.43% (n = 340,000);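 active = response above a set limit, near 3 SD of response in nonfluorescent compounds, cut at about 42% in these data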;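 also: stock transfer was 100 nL into about 11 µL; a reference agonist was the positive control; negative values mostly stem from fluorescent compounds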
# FGF22 binding – shifts melting point of recombinant human FGF22 | Q9HCT0 | recombinant FGF22 thermal shift, SYPRO orange fluorescence; percent of sucrose octasulfate shift, DMSO zero | calls only at 9.99 µM | actives 1.5% (n = 340,000) | AID 651658;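 active = melting point raised past a set limit in the mean and every replicate; three in four hits are not shown here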
# Target sequence (Q9HCT0 whole entry, looked up): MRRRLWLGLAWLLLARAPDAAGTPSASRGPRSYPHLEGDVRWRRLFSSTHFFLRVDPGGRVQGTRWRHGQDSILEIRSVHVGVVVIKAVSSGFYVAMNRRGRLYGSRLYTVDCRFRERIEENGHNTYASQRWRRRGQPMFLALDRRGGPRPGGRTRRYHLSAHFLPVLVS
# rRNA inh HTS – inhibitors of bacterial rRNA selective over humanized ribosomes; actives 1.6% (n = 350,000); GFP signal change (wild-type ribosome), % (no concentration beside the values); E. coli WT GFP vs humanized-ribosome RFP mutants, fluorescence, 24 h; stronger effect = lower value; DMSO median 0, no signal -100; AID 720706;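 active = significant combined selectivity score with lowered wild-type GFP, culture density cut under 30%, mutant RFP and density less affected; inactive = any of these conditions unmet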; also: one replicate is shown; some compounds called inactive have numbers as strong as hits
# HNF4A DNA FP – change in binding of human HNF4 alpha to DNA; actives 0.3% (n = 360,000); AID 1224865; activity change, % at 10 µM; HNF4a-FITC DNA binding, fluorescence polarization, 1 h; in the data active = activity change above about 30%, passing the limit was not always enough;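 also: controls were the assay level and a saturating level of protein; the project sought stronger binding though the title names inhibitors; some compounds called inactive have numbers as strong as hits; positive values seem to mean higher polarization but the record does not say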
# ALR H2O2 inh – human ALR oxidase inhibition via reduced H2O2; P55789; purified ALR, DTT oxidation, H2O2 HRP-luminol luminescence; inhibition, % (test concentration not listed); actives 3.8% (n = 290,000); AID 485317;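 active = mean and each replicate at 75% or more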;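 also: stock transfer was 7.5 nL into about 7.5 µL; 0% = neutral wells and 100% = wells with inactivated enzyme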
# Target sequence (P55789 whole entry, looked up): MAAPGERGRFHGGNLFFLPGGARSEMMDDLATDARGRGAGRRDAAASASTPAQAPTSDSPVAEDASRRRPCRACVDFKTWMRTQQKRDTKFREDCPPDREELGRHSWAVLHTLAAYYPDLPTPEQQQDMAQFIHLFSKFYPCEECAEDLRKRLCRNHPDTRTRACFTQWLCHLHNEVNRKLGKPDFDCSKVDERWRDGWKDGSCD
# rRNA inh HTS OD600 – also measured in rRNA inh HTS; calls as there; OD600 change, %; measured here: OD600 growth;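 optical density of the mix in the first replicate; 0 = DMSO median and -100 = no signal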
# rRNA inh HTS RFP – further read-out of rRNA inh HTS, marked with its call; RFP signal change, %; measured here: RFP humanized mutant strains;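 first replicate; 0 = DMSO median and -100 = no signal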
# * = called active by the depositor; i = inactive; . = no result given.
# Keys: A = Ecoli growth; B = UCH37 inh; C = Beta2AR agonist; D = FGF22 binding; E = rRNA inh HTS; F = rRNA inh HTS OD600; G = rRNA inh HTS RFP; H = HNF4A DNA FP; I = ALR H2O2 inh
O=C(O)c1cc(NC(=O)c2cccc(F)c2)cc(NC(=O)c2cccc(F)c2)c1
  A: 0.61; B: 6.5; C: -7.8; D: i; E: -3.1; F: -0.6; G: -0.1; H: 1.2; I: 0.1
CN(C)C(=O)c1cc(C(=O)c2ccccc2)c[nH]1
  A: 0.668; B: 4.6; C: -5.5; D: i; E: 5.6; F: 0.6; G: -4.4; H: 4.6; I: -0.6
CCOC(=O)N/N=C\c1ccc(OC(=O)c2ccc3c(c2)OCO3)cc1
  A: .; B: .; C: -7.8; D: .; E: 5.9; F: 7.2; G: 0.6; H: -1.8; I: -3.2
COC(=O)C(Cc1ccc(O)cc1)NC(=O)C(C)NC(=O)c1ccc(C(C)(C)C)cc1 (stereo unspecified)
  A: 0.678; B: 1.7; C: 4.3; D: i; E: -2.9; F: -13.5; G: 0.1; H: -0.7; I: 21.3
CS(=O)(=O)N(CC(=O)NC1CCCCCC1)Cc1ccccc1
  A: 0.702; B: 2.6; C: 11.1; D: .; E: .; F: .; G: .; H: 1.1; I: 1.2
O=C1NC[C@H](c2ccccc2)OC(=O)[C@H](Cc2ccc(F)cc2)C/C=C\C[C@@H]1CC(=O)N(CCO)Cc1ccccc1
  A: .; B: -0.4; C: 6.7; D: i; E: -13.1; F: -25.9; G: -0.8; H: -0.1; I: 2.3
Clc1ccc(-n2ncc3c(NCCCn4ccnc4)ncnc32)cc1
  A: 0.713; B: 1.6; C: -8.9; D: .; E: .; F: .; G: .; H: 0.4; I: -4.0
CCC(c1nnnn1C(C)(C)C)N1CCN(Cc2ccccc2OC)CC1 (stereo unspecified)
  A: 0.621; B: 2.0; C: 5.7; D: i; E: 17.0; F: 4.7; G: 3.9; H: -0.1; I: -2.3
O=C(CSc1nnc(-c2ccccn2)o1)Nc1ccccc1
  A: 0.713; B: 1.5; C: -1.5; D: i; E: -4.4; F: -6.8; G: -4.4; H: 1.5; I: 28.8
COCCN(Cc1nc(-c2ccc(C(F)(F)F)cc2)no1)C(C)C
  A: 0.676; B: 1.2; C: -11.4; D: i; E: 21.4; F: 16.5; G: -0.2; H: 2.9; I: 4.7

# Compounds shown so far that contain sulfur, in the order listed:
# Keys: A = Ecoli growth; B = UCH37 inh; C = Beta2AR agonist; D = FGF22 binding; E = rRNA inh HTS; F = rRNA inh HTS OD600; G = rRNA inh HTS RFP; H = HNF4A DNA FP; I = ALR H2O2 inh
CS(=O)(=O)N(CC(=O)NC1CCCCCC1)Cc1ccccc1
  A: 0.702; B: 2.6; C: 11.1; D: .; E: .; F: .; G: .; H: 1.1; I: 1.2
O=C(CSc1nnc(-c2ccccn2)o1)Nc1ccccc1
  A: 0.713; B: 1.5; C: -1.5; D: i; E: -4.4; F: -6.8; G: -4.4; H: 1.5; I: 28.8

# A few values from the results shown:
# In ALR H2O2 inh, CN(C)C(=O)c1cc(C(=O)c2ccccc2)c[nH]1 has -0.6
# In rRNA inh HTS RFP, CCC(c1nnnn1C(C)(C)C)N1CCN(Cc2ccccc2OC)CC1 (stereo unspecified) has 3.9
# In UCH37 inh, O=C1NC[C@H](c2ccccc2)OC(=O)[C@H](Cc2ccc(F)cc2)C/C=C\C[C@@H]1CC(=O)N(CCO)Cc1ccccc1 has -0.4
# In ALR H2O2 inh, CS(=O)(=O)N(CC(=O)NC1CCCCCC1)Cc1ccccc1 has 1.2

# The main list resumes, repeating the 2 entries before the break.
# Results follow in this order: Ecoli growth, UCH37 inh, Beta2AR agonist, FGF22 binding, rRNA inh HTS, rRNA inh HTS OD600, rRNA inh HTS RFP, HNF4A DNA FP, ALR H2O2 inh
- O=C(CSc1nnc(-c2ccccn2)o1)Nc1ccccc1
 : 0.713, 1.5, -1.5, i, -4.4, -6.8, -4.4, 1.5, 28.8
- COCCN(Cc1nc(-c2ccc(C(F)(F)F)cc2)no1)C(C)C
 : 0.676, 1.2, -11.4, i, 21.4, 16.5, -0.2, 2.9, 4.7
- COc1ccc(S(=O)(=O)N2CCN(C(=O)c3c(C)nn(-c4ccccc4)c3C)CC2)cc1
 : 0.683, -1.7, -0.1, i, 0.1, 1.8, -1.8, 2.6, .
- Cc1cc(C)c[n+](CC(=O)c2ccc(NC(=O)c3ccccc3)cc2)c1
 : 0.676, 1.5, -3.1, i, 11.7, 16.3, -3.3, 1.4, 15.1
- O=C(Nc1ccc2oc(=O)ccc2c1)c1ccc(-c2ccccc2[N+](=O)[O-])o1
 : 0.637, 5.9, 2.9, i, 5.4, 20.2, 1.2, 4.5, -26.1
- CCC(OC(=O)c1cc2sccc2n1C)C(=O)NCc1ccco1 (stereo unspecified)
 : 0.701, 1.0, -9.4, i, 3.7, 2.0, -0.8, -1.7, -9.9
- O=C(COc1ccc(Cl)cc1)Nc1nnc(-c2ccc3c(c2)CCCC3)o1
 : 0.701, 3.7, 4.3, i, -12.8, -18.4, 1.5, 1.4, -14.7
- CCOc1ccc(CNc2ncc(-c3ccccc3)n2C)cc1
 : 0.597, 0.3, -11.8, i, 17.5, -0.7, 2.7, 10.3, 38.1
- CCOC(=O)C1(C)CCCN(C(=O)c2ccc(C)c(F)c2)C1 (stereo unspecified)
 : ., ., ., i, 7.7, 7.6, -5.1, 1.8, .
- O=C1NC(Cc2ccccc2)C(=O)N1Cc1cc([N+](=O)[O-])cc2c1OCOC2 (stereo unspecified)
 : 0.708, 6.0, -7.9, i, 6.6, 7.4, 1.1, 2.3, -5.2
- Cc1cc(C(=O)OCC(=O)N2CC(C)CC(C)C2)c(C)o1 (stereo unspecified)
 : 0.721, 1.8, -5.1, ., ., ., ., 1.2, 5.4
- COc1ccc(Oc2nc(OC)cc(OC)n2)cc1
 : 0.668, 2.0, -22.3, i, 12.9, 4.6, 0.0, 0.8, -17.1
- Cc1cc(C)c(S(=O)(=O)Nc2nnc(C3CCCCC3)s2)c(C)c1
 : 0.679, 1.8, 11.8, i, -51.7, -71.5, -13.4, -1.5, 6.6

# Entries of single compounds, quoted from the list. Values in the order: Ecoli growth | UCH37 inh | Beta2AR agonist | FGF22 binding | rRNA inh HTS | rRNA inh HTS OD600 | rRNA inh HTS RFP | HNF4A DNA FP | ALR H2O2 inh
# O=C(COc1ccc(Cl)cc1)Nc1nnc(-c2ccc3c(c2)CCCC3)o1 across the screens: 0.701 | 3.7 | 4.3 | i | -12.8 | -18.4 | 1.5 | 1.4 | -14.7
# COc1ccc(Oc2nc(OC)cc(OC)n2)cc1 across the screens: 0.668 | 2.0 | -22.3 | i | 12.9 | 4.6 | 0.0 | 0.8 | -17.1

# Only part of the results is shown, so the mix of outcomes need not match the whole.
